Assay outcomes from PubChem.
Biofilm kill mix = mixture kills Candida albicans biofilm cells. 120,000 tested, 0.02% active. C. albicans biofilm persisters + clotrimazole, fluorescence viability; primary screen in compound mixtures of four per well. inhibition, % at 7.6 µM;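 active = inhibition above 30.3% in the primary screen of four-compound pools, then above 30% when the compound was retested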;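 note: compounds exposed to preformed 24 h biofilms for 48 h; the number belongs to the whole pool; some results filed as inactive read as strong as hits; inactives centre near 12; 0% = biofilm with clotrimazole alone and 100% = kill control; retested singly at about 60 µM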
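Probe or stimulus – Clotrimazole 50 µg/mL co-treatment · System – C. albicans biofilms · Schedule – 24 h biofilm formation, then 48 h compound exposure, 37 °C · Evaluation – percent inhibition of biofilm viability · Technique – 2-h Alamar Blue fluorescence, 535/590 nm excitation/emission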
The depositor's hits bear a star; & = joins results of further samples. The list is partial; the hit share may differ from the screen's.

The opening two compounds (preview)
SMILES | Biofilm kill mix
CC[C@@H]1CC=C[C@H]2[C@H]1C(=O)N(Cc1ccccc1)[C@H]2c1ccc(C(F)(F)F)cc1 | 18
O=[N+]([O-])c1nn(-c2ccccc2)n(O)c1=NCCc1ccccc1 | 14

The listing, from the first entry:
SMILES | Biofilm kill mix
CC[C@@H]1CC=C[C@H]2[C@H]1C(=O)N(Cc1ccccc1)[C@H]2c1ccc(C(F)(F)F)cc1 | 18
O=[N+]([O-])c1nn(-c2ccccc2)n(O)c1=NCCc1ccccc1 | 14
CCOC(=O)c1ccc(NC(=S)N2CCSC2c2ccc(OC)cc2)cc1 (stereo not given) | 12
CCOc1ccc(N=c2scc(-c3ccc(OC)cc3)n2CCO)cc1 | 9
CC(C)CN1CN(Cc2ccco2)CNC1=S | 12
CSCCC(NS(=O)(=O)c1ccc(C)cc1)C(=O)NC1CCCCC1 (stereo not given) | 8
O=C(CN1CCN(Cc2ccccc2)CC1)N1N=CCC1c1ccccc1 (stereo not given) | 6
CC1=NOC(=O)/C1=C\c1ccc(-c2ccc(Br)cc2C(=O)O)o1 | 13
COc1cc(NC(=O)c2cccnc2)ccc1-c1cc2ccccc2oc1=O | 4
NS(=O)(=O)c1ccc(N2C(=O)C3C4CC(C(Br)C4Br)C3C2=O)cc1 (stereo not given) | 11
COC(=O)Cn1c(=NC(=O)c2ccc(OC)cc2)sc2cc(OC)ccc21 | 21
COc1cccc(NC(=O)CSc2nnc(Cn3nnc4ccccc43)n2C)c1 | -3
CCOc1c(Nc2ccc(C(C)C)cc2)c(=O)c1=O | 16
Cc1ccccc1NC(=O)Nc1nnc(CC(=O)NCc2ccccc2)s1 | 12
Cc1ccccc1NC(=O)c1snc2c(=O)[nH]cnc12 | 24
O=C1CCCCN1CCc1c[nH]c2ccccc12 | 12
CSCCC(NC(=O)c1ccccc1Br)C(=O)NCC1CCCCC1 (stereo not given) | 15
COc1ccc(-c2csc(NS(=O)(=O)c3ccc([N+](=O)[O-])cc3)n2)cc1 | 20
COc1ccc(CNC[C@@H](CCCCN(C)Cc2ccc(OC)cc2)N2C[C@H](c3ccccc3)N(CCc3ccc(Cl)c(Cl)c3)C(=O)C2=O)cc1 | 17
CC1CCCC(C)N1C(=O)COc1ccc(F)cc1 (stereo not given) | 6
CCOc1cc(OCC)cc(C(=O)Nc2cccc(C(C)=O)c2)c1 | 10
Cc1nc(N2CCN(c3ccccn3)CC2)c2c(C)c(C(=O)Nc3ccc(F)cc3F)sc2n1 | 6
Cc1nn(CC(=O)Nc2ccc3c(c2)OCO3)c(C)c1[N+](=O)[O-] | 10
CC(C)(C)C(=O)CSc1ncnc2sc3c(c12)CCC3 | 6
Cc1nn(C2CCS(=O)(=O)C2)c(Cl)c1/C=C/C(=O)OCC(=O)N(C)C (stereo not given) | 14

Other entries.
SMILES | Biofilm kill mix
C=CCn1c(SCC(=O)NC2CCS(=O)(=O)C2)nnc1-c1cc2c(s1)CCC(CC)C2 (stereo not given) | -4
CCc1cccc2c(C(=O)CSc3nncn3-c3ccc(OC)cc3)c[nH]c12 | 13
COc1ccc(OC)c(/C=N/NC(=O)CCc2ccc(O)c(O)c2)c1 | 11
Cc1ccc(OCCNC(=O)/C=C/c2ccccc2)cc1C | 19
C=CCn1c(SCc2cc(=O)n3ccsc3n2)nc2ccccc2c1=O | 21
COc1ccccc1N1CCN(C(c2ccc(N(C)C)cc2)c2nnnn2CCc2ccccc2)CC1 (stereo not given) | 13
CCOc1ccc(NC(=S)N(CCc2c(C)[nH]c3ccc(C)cc23)Cc2cccnc2)cc1 | 16
Cc1c(NC(=O)C(C)OC(=O)c2cccc(S(=O)(=O)N3CCOCC3)c2)c(=O)n(-c2ccccc2)n1C (stereo not given) | 20
Cc1ccc(NC(=O)CSc2nnc(COc3ccccc3C)o2)cc1 | -3
Cc1cccc(N(CC(=O)NC(C)C)C(=O)c2ccc(N3CCCC3)nc2)c1 | 6
COc1ccc(-n2c(SCC(=O)Nc3cccc4ccccc34)nc(O)cc2=O)cc1 | 7
CCc1ccc2nc(SCC(=O)Nc3ccccc3N3CCOCC3)c(C#N)cc2c1 | 11
COCCNc1nnc(SCC(=O)Nc2sc3c(c2C(=O)c2ccccc2)CCCC3)s1 | 22
Oc1ccc(C(c2nnnn2CCc2ccccc2)N2CCN(c3nc4ccccc4s3)CC2)cc1 (stereo not given) | 20
O=S(=O)(c1ccc(OCC2CO2)cc1)c1ccc(OCC2CO2)cc1 (stereo not given) | 16
CC(C)(C)c1ccc(C(=O)NCCCN2CCN(CCCNC(=O)c3ccc(C(C)(C)C)cc3)CC2)cc1 | 12
O=C(COC(=O)c1ccccc1Br)NCCc1ccc(F)cc1 | 15
Fc1ccc(OCCOCCOc2cccc3[nH]ccc23)cc1 | 11
COC(=O)c1cc(NC(=O)c2cccs2)ccc1N1CCOCC1 | 18
COc1c(-c2ccc(O)c(O)c2)oc2cc(O)cc(O)c2c1=O | 13
Cc1[nH]c(=S)[nH]c(=O)c1Cc1ccc(OCC(C)C)cc1 | 15
COc1cc(Cl)cc2c1Sc1ccccc1/C2=C/CCN(C)C | 4
CC(Sc1nc(O)c(-c2ccccc2)c(=O)[nH]1)C(=O)Nc1ccc(Cl)cc1 (stereo not given) | 15
Cc1ccc(-c2nnc(Oc3cccc(C)c3)c3ccccc23)cc1 | -3
O=C(CSc1nnnn1C1CCCCC1)NCc1cccs1 | 9

(next part)
SMILES | Biofilm kill mix
NC(=O)Cc1ncc(C(F)(F)F)cc1Cl | 14
CC(C)(C)OC(=O)NCCC(=O)N/N=C/c1cccc2cccnc12 | 15
O=C(COC(=O)C1CC2C=CC1C2)Nc1cccc(S(=O)(=O)N2CCCCC2)c1 (stereo not given) | 17
Cc1ccc(O)c(NC(=O)c2cc(-c3ccc(F)cc3)on2)c1 | 6
NS(=O)(=O)c1ccc(NC(=O)CCCC(=O)O)cc1 | 13
O=c1c2cn[nH]c2[nH]c(=S)n1-c1cccc2ccccc12 | -2
C=CCNCCOCCOc1ccc(Cl)cc1C(C)(C)C | 15
Cc1ccc(-c2csc3nc(C)n(N)c(=O)c23)cc1 | 6
CC1CCc2nc3ccccc3c(C(=O)OCC(=O)NC3CCS(=O)(=O)C3)c2C1 (stereo not given) | 11
Cc1ccc(NC(=O)c2ccc(C(C)(C)C)cc2)cc1-n1cnnn1 | 2
C/C=C/C(=O)Nc1cccc(C2=NOC3(C2)C[C@H](C(N)=O)N(C(=O)/C=C/C)C3)c1 (stereo not given in full) | 24
COc1ccc(/C=C/c2cc(C(F)(F)F)[nH]c(=O)n2)cc1OC | 21
CCn1c(NCc2ccccn2)nc2ccccc21 | 5
CCOC(=O)c1c(C)[nH]c(C(=O)OCCOc2ccccc2C)c1C | 23
CC1=C(C#N)c2nc(N)c(C#N)c(C)c2/C1=C\c1ccc(OCC(=O)O)c(Cl)c1 | 17
O=c1c2ccccc2nc(/C=C/c2cccnc2)n1Cc1ccccc1 | 2
O=C(COc1ccccc1)N1CCN=C1SCc1cccc(F)c1 | 24
CCOC(=O)c1c(CN(CC)CC)oc2ccc(OC)cc12 | 13
Cc1cc(C(=O)NNC2CC(=O)N(c3ccc4ccccc4c3)C2=O)c(C)o1 (stereo not given) | 11
O=C(Nc1nnc(C2COc3ccccc3O2)o1)c1ccc(F)cc1 (stereo not given) | 14
COc1ccc(Cl)cc1C(=O)NNC(=O)CN1C(=O)C2CC=CCC2C1=O (stereo not given) | 19
Cc1cc(C(=O)Nc2ccc(N3CCCCC3)cc2)no1 | 16
CCc1cc(C(=O)N2CCCC(C(=O)c3cccc4ccccc34)C2)n(C)n1 (stereo not given) | 1
Cc1ccc2c(c1)C1CN(C)CCC1N2C(=O)COc1ccc(N(C)S(=O)(=O)c2cccs2)cc1 (stereo not given) | 10
CN(C)S(=O)(=O)c1ccc(C(=O)Nc2nc(-c3cc4ccccc4o3)cs2)cc1 | 21

Laid out differently: entries from further up
| SMILES | Biofilm kill mix |
| --- | --- |
| CC1=C(C#N)c2nc(N)c(C#N)c(C)c2/C1=C\c1ccc(OCC(=O)O)c(Cl)c1 | 17 |
| O=c1c2ccccc2nc(/C=C/c2cccnc2)n1Cc1ccccc1 | 2 |
| O=C(COc1ccccc1)N1CCN=C1SCc1cccc(F)c1 | 24 |
| CCOC(=O)c1c(CN(CC)CC)oc2ccc(OC)cc12 | 13 |
| Cc1cc(C(=O)NNC2CC(=O)N(c3ccc4ccccc4c3)C2=O)c(C)o1 (stereo not given) | 11 |
| O=C(Nc1nnc(C2COc3ccccc3O2)o1)c1ccc(F)cc1 (stereo not given) | 14 |
| COc1ccc(Cl)cc1C(=O)NNC(=O)CN1C(=O)C2CC=CCC2C1=O (stereo not given) | 19 |

(listing goes on)
SMILES | Biofilm kill mix
COCc1c(C#N)c(NCc2cc(OC)c(OC)c(OC)c2)nc(C)c1[N+](=O)[O-] | 25
Cc1ccc(S(=O)(=O)CCC(=O)Nc2ccc3nc(C)sc3c2)cc1 | 11
CC(C)Cn1c(N)c(C(=O)COC(=O)c2cccc(Cl)c2)c(=O)n(C)c1=O | 16
COc1ccc(/C=C2\SC(=S)N(CC3CCCO3)C2=O)cc1 (stereo not given) | -10
CCn1c(N2CCN(S(=O)(=O)CC)CC2)nc2ccccc21 | 25
Cc1cccc(C)c1NC(=S)Nc1c(C)n(C)n(-c2ccccc2)c1=O | 13
CCOC(=O)c1sc(SC)nc1N | 2
COc1ccc(C2C(C(=O)c3ccccc3)=C(C)Nc3nc4ccccc4n32)c(OC)c1 (stereo not given) | 1
CCOC(=O)c1c(NC(=O)C2C3CCC(O3)C2C(=O)O)sc2c1CCCC2 (stereo not given) | 28
CCOC(=O)c1ccc2c(c1)N(CC(=O)N1CCCCC1)C(=O)C(C)(C)O2 | 21
O=C(Nc1ccc(Cl)cc1C(=O)NCc1cccnc1)c1ccc(Cl)cc1Cl | 9
O=C(N/N=C/C1=C(N2CCOCC2)C(=C\c2ccccc2)/CC1)Nc1ccccc1 | 13
Cc1cc(O)c(C2=Nc3ccccc3SC(c3ccc(Cl)cc3)C2)c(=O)o1 (stereo not given) | 14
COc1cccc(/C=N/n2nnnc2N)c1O | 29
CC(=O)Nc1nc(SCC(=O)Nc2nnc(C)s2)[nH]c(=O)c1NC(=O)c1cccs1 | 11
COc1ccccc1CNC(=O)c1ccc(-c2ccccc2C(F)(F)F)o1 | 18
O=Cc1cn(CC(=O)N2CCCCCC2)c2ccccc12 | 16
CCOC(=O)c1cc(-c2ccccc2)nn1CCC#N | 20
COC(=O)Cn1c2ccc(Cl)cc2c2nc(C)sc21 | 12
CCc1nnc(NS(=O)(=O)c2ccc(Nc3ccc4nonc4c3[N+](=O)[O-])cc2)s1 | -2
Cc1cc(=O)[nH]c(N/N=C/c2sccc2C)n1 | 9
CC(=O)Nc1cc2ccccc2oc1=O | 22
CC(=O)Nc1cc[n+](C(C)C(=O)c2ccc(Br)cc2)cc1 (stereo not given) | 24
CCOc1ccc(/C(C)=N/NC(=O)C(OC)c2ccccc2)cc1 (stereo not given) | -1
O=C(O)CC1S/C(=N/N=C/C=C/c2ccccc2)NC1=O (stereo not given) | 19&-1

Next part
SMILES | Biofilm kill mix
O=C1CC(N2CCN(Cc3ccc4c(c3)OCO4)CC2)C(=O)N1c1cccc2ccccc12 (stereo not given) | 12
O=C1Nc2ccccc2S/C1=C/c1cccs1 | 24
COc1cccc(C(=O)NNC(=O)Cc2csc(N)n2)c1 | -6
O=C(CCNC(=O)c1ccccc1)N/N=C/c1ccc([N+](=O)[O-])cc1 | 4
Cc1ccc2c(c1)nnn2C1CCN(CC(=O)Nc2ccc(F)cc2)CC1 | 14
COc1cc(NC(=O)CSc2nnc(NC(C)C)s2)cc(OC)c1OC | 17
Cc1cn(Cc2ccccc2Cn2cc(C)c(=O)[nH]c2=O)c(=O)[nH]c1=O | 18
CC(/C=C1\NC(=S)NC1=O)=C\c1ccccc1 | 13
O=CN1CCN(c2ncnc3c2nnn3Cc2c(F)cccc2Cl)CC1 | 0
O=C(/C=C/c1ccc([N+](=O)[O-])cc1)NCCN1C(=O)S/C(=C\c2ccc(F)cc2)C1=O | 8
CC(=O)Nc1cc(C(=O)NCCN2CCN(Cc3ccccc3)CC2)ccc1Sc1ccc(C)cc1 | 13
Cc1noc(C)c1COC(=O)Cc1ccc(Br)cc1 | 14
O=S(=O)(NCc1ccccn1)c1cc(C(F)(F)F)ccc1Cl | 25
O=C1CNC(=S)N1CCc1ccccc1Cl | 25
Cc1ccc(-c2csc(NC(=O)c3ccc4c(=O)n5c(nc4c3)CCCCC5)n2)cc1 | 12
Cc1nn(C)cc1/C=C(/C#N)C(N)=O | 21
NS(=O)(=O)c1ccc(NCC2COc3ccccc3O2)c([N+](=O)[O-])c1 (stereo not given) | 13
Cc1ccc(C2(c3noc(CN4CCC(C(=O)N5CCOCC5)CC4)n3)CCCC2)cc1 | 27
COc1ccc(/C=C2\CCC(C3CCCC3)C2=O)cc1Cn1nc(C)cc1C (stereo not given) | 5
S=C1NC2CCCCC2N1 (stereo not given) | 22
O=S(=O)(c1ccccc1)c1nc(-c2ccccc2)oc1N1CCOCC1 | 14
N#C/C(=C\c1c[nH]c2ccccc12)c1nnc2n1CCCCC2 | 7
COc1cccc(NC(=S)Nc2ccc(Br)cc2Cl)c1 | 3
CN1CCN(C(=O)/C=C/c2ccc([N+](=O)[O-])o2)CC1 | 7
Cc1cccc(N(CC(=O)NC(C)(C)C)C(=O)CS(=O)CC(=O)Nc2ccc(F)cc2)c1 (stereo not given) | 8
O=C(COc1ccc(Cl)cc1)NCCc1ccccn1 | 13

Exported as comma-separated lines: five of the compounds above
structure,Biofilm kill mix
O=C(COC(=O)C1CC2C=CC1C2)Nc1cccc(S(=O)(=O)N2CCCCC2)c1 (stereo not given),17
Cc1ccc(O)c(NC(=O)c2cc(-c3ccc(F)cc3)on2)c1,6
NS(=O)(=O)c1ccc(NC(=O)CCCC(=O)O)cc1,13
O=c1c2cn[nH]c2[nH]c(=S)n1-c1cccc2ccccc12,-2
C=CCNCCOCCOc1ccc(Cl)cc1C(C)(C)C,15
